# PrP 5UTR inh: suppresses PrP 5' UTR mRNA reporter expression. 340,000 compounds, 0.35% hits. inhibition, % (concentration not given with the values). cell-based PrP 5' UTR mRNA reporter, plate reader;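 active means every replicate at 50% or more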;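 further: 0 = median of the neutral control wells; tested in H4 reporter cells; numbers are from one replicate; inactives centre near -14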
# BJeLR lethal: kills HRASV12-expressing BJeLR cells | inhibition, % (test concentration not listed) | 300,000 compounds, 0.17% hits | BJeLR (HRASV12) viability, CellTiter-Glo ATP luminescence, 48 h; reference of the scale not given here;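 active means replicate mean above 50%; inconclusive means above 50% but judged a plate artefact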;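 further: 50 nL library stock added to about 25 µL; numbers are from one replicate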
# Mtb hypoxia rep: inhibitors of hypoxia-regulated fluorescent reporter in Mycobacterium tuberculosis; M. tuberculosis hypoxia-regulated fluorescent reporter, fluorescence; fluorescence inhibition, % (concentration not given with the values); 300,000 compounds, 0.1% hits;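 active means 35 to 45% if threefold the growth effect, above 45% if 1.5-fold the growth effect; inactive means the rest, general growth blockers included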;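 further: wells of about 50 µL received 100 nL stock; 0% = vehicle wells and 100% = reference inhibitor wells; whole bacteria with a GFP reporter of the hypoxia response; strong numbers were not always called active; many hits fall short of the cut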
# Bead autofluor: counter-screen for toxin protease inhibitors: compound fluorescence; compound autofluorescence counterscreen, microsphere flow cytometry; hits give high values; fluorescence intensity (concentration not given with the values); 360,000 compounds, 3.1% hits;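 active means at least 3 SD above the mean of all compounds, about 16000 in these data; inconclusive means too few beads counted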;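 further: 100 nL of 1 mM stock went into each well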
# Sa ugtP lethal: growth inhibition of S. aureus ugtP deletion strain; S. aureus RN4220 ugtP deletion, OD600 growth, 16 h; some inactives read as strong as hits; growth inhibition, % (concentration not given with the values); 330,000 compounds, 0.54% hits; AID 1259309;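 active means z-score under -3 and OD600 up to 0.15 on both plates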;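 further: plate controls were untreated wells for no effect and antibiotic for full effect; wells of about 80 µL received 100 nL stock; the first replicate is given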
# RN4220 kill: kills Staphylococcus aureus RN4220 | S. aureus RN4220 growth, OD600, 16 h | inhibition, % (test concentration not listed) | 330,000 compounds, 0.33% hits;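 active means z-score of -3 or lower and OD600 up to 0.18 on both plates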;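 further: plate controls were untreated cells for no effect and reference antibiotic for full effect; stock transfer was 100 nL into about 80 µL; one replicate is shown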
# Mtb hypoxia rep growth: further read-out of Mtb hypoxia rep, marked with its call; growth inhibition, %; measured here: M. tuberculosis growth (absorbance);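 0% = vehicle and 100% = reference antibiotic; read after six days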
# Active calls of the source: *; ? = inconclusive; · = no result given. Rows were taken by chance; overall some 4% were active at least once.
# Start of the listing, in advance:
SMILES,PrP 5UTR inh,BJeLR lethal,Mtb hypoxia rep,Mtb hypoxia rep growth,Bead autofluor,Sa ugtP lethal,RN4220 kill
COc1cccc(C2=CC(=O)CC(c3ccc(OC)c(OC)c3)C2)c1 (stereo unspecified),·,·,4,12,·,-7,11
CCc1nnc(NC(=O)CCC(=O)Nc2ccc(Cl)cc2)s1,-9,-4,-6,-11,4123,10,5.0
O=C(C1CC=CC2CCN(Cc3ccccc3)C(=O)C21)N1CCOCC1 (stereo unspecified),·,·,11,7,·,0,-0.4
C/C(=N/NC(=O)C1CC1(c1ccccc1)c1ccccc1)c1ccco1 (stereo unspecified),6,10,·,·,8283,·,·
CCCOP(=O)(c1ccccc1)c1ccccc1,-7,-1,9,7,6808,6,-0.9

# Results, previewed entries included:
SMILES,PrP 5UTR inh,BJeLR lethal,Mtb hypoxia rep,Mtb hypoxia rep growth,Bead autofluor,Sa ugtP lethal,RN4220 kill
COc1cccc(C2=CC(=O)CC(c3ccc(OC)c(OC)c3)C2)c1 (stereo unspecified),·,·,4,12,·,-7,11
CCc1nnc(NC(=O)CCC(=O)Nc2ccc(Cl)cc2)s1,-9,-4,-6,-11,4123,10,5.0
O=C(C1CC=CC2CCN(Cc3ccccc3)C(=O)C21)N1CCOCC1 (stereo unspecified),·,·,11,7,·,0,-0.4
C/C(=N/NC(=O)C1CC1(c1ccccc1)c1ccccc1)c1ccco1 (stereo unspecified),6,10,·,·,8283,·,·
CCCOP(=O)(c1ccccc1)c1ccccc1,-7,-1,9,7,6808,6,-0.9
O=C(NCCS(=O)(=O)N1CCN(c2ccc(F)cc2)CC1)c1ccco1,-7,0,-1,5,6825,5,-0.1
Cc1cc(NC(=O)C(Cl)c2ccccc2)no1 (stereo unspecified),42,5,21,14,·,1,3.8
CCC(C)[C@H](NC(=O)CCn1nnc2ccccc2c1=O)C(=O)O (stereo partly specified),-14,-4,0,0,2187,2,-1.1
CC(C)NC(=O)C1CCN(c2ccc(S(=O)(=O)N3CCOCC3)cc2Cl)CC1,-18,8,-7,-9,4713,-2,3.2
Cc1ccccc1-n1ncc2c1CC(C)(C)CC2NC(=O)CN1CCCC1=O (stereo unspecified),-4,-2,3,-2,6448,4,0.8
CCN(CC)N=Nc1ccc(S(N)(=O)=O)cc1,-16,1,3,16,5715,8,-0.5
COc1cccc(NC(=O)CN2C(=O)NC3(CCCc4ccccc43)C2=O)c1 (stereo unspecified),-3,·,-1,8,?,-8,-1.9
COc1ccc(-n2c(C)c(C)c3c(NCCCN(C)C)ncnc32)cc1,-10,4,5,-6,3645,5,-1.1
COc1ccccc1C(=O)Nc1nnc(SCC(=O)Nc2ccc3c(c2)oc2ccccc23)s1,-192,-12,-10,3,2089,-26,4.9
C=C(C(=O)O)C(CCCCCC)C(=O)O (stereo unspecified),-23,8,·,·,5362,7,1.5
CC1CN(C(C)CO)C(=O)c2cc(NS(C)(=O)=O)ccc2OC1CN(C)C(=O)NC1CCCCC1 (stereo unspecified),·,·,18,8,·,1,8.4
O=C(NCc1nnc(SCc2ccccc2)n1-c1ccc(F)cc1)C12CC3CC(CC(C3)C1)C2,-15,4,3,4,2582,-11,6.5
CC(=O)c1ccc(OCC(=O)NC(=O)NC2CCCCC2)cc1,-11,10,1,-1,5957,3,-1.1
CC(=O)c1ccc2c(c1)C1C(Cl)C(Sc3ccccc3[N+](=O)[O-])CC1C(c1ccccc1[N+](=O)[O-])N2 (stereo unspecified),2,-2,-3,16,4562,-11,-4.9
COc1ccc(C(C)=O)cc1CSc1nc2cc(C(=O)O)ccc2c(=O)n1Cc1ccccc1,-15,9,5,8,2045,-7,6.4
CCC(NC(=O)Nc1ccc(O)cc1)(C(F)(F)F)C(F)(F)F,-29,·,·,·,2794,3,5.5
Cc1cc(=O)oc2cc(OCC(=O)N3CCc4ccccc4C3)ccc12,-6,4,7,6,2946,-10,-7.1
CCN(CCCNC(=O)c1c(C)cc(=O)oc1C)c1cccc(C)c1,-97,5,6,8,22991*,6,5.7
COCCOc1cc(N2C(=O)CSCC2=O)c(Cl)cc1Cl,1,-7,11,3,12530,0,2.1
O=C(/C(=N\Nc1ccccc1)Sc1nnnn1-c1ccccc1)c1ccccc1,-5,2,·,·,9162,·,·
O=C(c1ccc(OC2CCN(CCc3ccccc3)CC2)cc1)N1CCC(CO)CC1,-2,4,-9,-6,5716,4,-0.4
O=C(/C=C/Nc1ccccc1C(F)(F)F)c1ccco1,-60,-8,9,2,4205,-3,9.2
O=P(O)(O)C12CC3CC(CC(C3)C1)C2,-10,-5,3,9,10456,-2,4.5
CN(C1CCCC1)C1CCN(C(=S)Nc2cc(F)cc(F)c2)CC1,1,0,-4,-8,3966,9,3.8
COC(=O)C1C(c2ccc(N(C)C)cc2)C(C(=O)OC)S(=O)(=O)CS1(=O)=O (stereo unspecified),-15,1,5,1,2656,0,6.0
CCCCn1c(N)c(N(CCC(C)C)C(=O)CC2CCCC2)c(=O)[nH]c1=O,-16,-2,8,2,4678,9,3.2
COc1ccc(CSc2nnc(-c3ccncc3)n2N)cc1,-53,-2,4,-3,4024,6,0.4
CC(C)=CCCC(C)=CCCC(C)=CCOc1ccc2ccc(=O)oc2c1,·,·,11,12,·,5,-4.8
CNCCCC1c2ccccc2C=Cc2ccccc21,0,4,9,6,5852,1,0.3
O=C(CN1C(=O)NC(CCc2ccccc2)C1=O)NC1CC1 (stereo unspecified),-26,4,-1,5,4638,7,1.3
C=CCC1([C@@H](C)CCC)C(=O)NC(=O)NC1=O,-12,·,·,·,5836,9,2.0
COc1ccc(S(=O)(=O)N2CCN(CC(O)COc3ccc(C#N)cc3)CC2)cc1OC (stereo unspecified),-15,4,-9,-4,4078,7,4.2
CC1C/C(=N/NC(=O)c2cccc(F)c2)c2ccc(O)cc2C1 (stereo unspecified),-62,-14,·,·,20922*,·,·
O=C(C[n+]1cccc(/C=N/O)c1)N1CCCCCC1,-9,0,·,·,2193,·,·
O=C1CCCC=CCC(CC(=O)N(CCO)Cc2ccccc2)C(=O)NCC(c2ccccc2)O1 (stereo unspecified),·,·,18,9,·,1,4.2
CCOc1ccc(CNC(=O)c2cccc(NC(=O)C3=C(C)OCCS3)c2)cc1,-1,-1,-1,6,4878,-2,-0.3
CC(=O)Nc1ccc(S(=O)(=O)N2CCCC(C(=O)O)C2)cc1 (stereo unspecified),1,1,10,1,4259,6,7.3
O=C(NCCc1nnc2ccc(NCCCN3CCOCC3)nn12)c1ccccc1,-14,4,3,7,6103,1,-0.8
COc1cc(/C=N/NC(=O)c2ccc(COc3ccccc3Cl)o2)cc(Br)c1O,-25,-8,·,·,2153,·,·
COc1ccccc1-n1c(=O)c2c3c(sc2n2c(SC(C)C)nnc12)CCC3,-11,3,1,-2,3397,6,5.1
O=C1COc2cc(O)ccc21,-6,·,10,10,3418,1,1.1
O=C(Nc1cccc(/C=C/c2ccccn2)c1)c1cc(Cl)ccn1,-10,-12,-10,2,7442,-10,10.0
CCOC(=O)c1c(C)oc2c1c(C=NCCC(=O)O)c(O)c1ccccc12,-10,2,9,-5,3719,4,9.5
Cc1ccc(OCC(=O)NCCNC(=O)COc2ccc(C)cc2)cc1,-19,8,0,11,3591,-1,-2.8
O=C(NCc1ccc(F)cc1)C(=O)NCC1OCCN1S(=O)(=O)c1cccs1 (stereo unspecified),-7,9,3,3,4271,-5,4.2
CC(=O)c1sc(NC(=O)CSCc2c(C)noc2C)nc1-c1ccccc1,-4,·,1,2,8135,3,9.8
Cc1cc(C)nc(N/N=C/c2cn[nH]c2-c2ccc(F)cc2)n1,-23,-8,·,·,4192,·,·
CC(=NNC(=O)c1cccc(S(=O)(=O)N2CCCCC2)c1)c1ccc(C)o1,·,·,3,0,·,4,0.1
COCCCNC(=O)Cn1ncc2c(=O)oc3ccccc3c21,-3,-12,·,·,4038,-4,1.0
O=C(Sc1ccc(Cl)cc1)c1cccc(Cn2cc(C(F)(F)F)ccc2=O)c1,-9,5,4,6,4110,31,-1.7
O=C(Nc1ccc(F)cc1)Nc1csc2ccccc12,·,-4,9,15,4951,60,52
COc1cc(CN2CCN(C(=O)CC(C)C)CC2)cc(OC)c1O,-24,5,2,6,10282,6,3.9
O=C(Cn1ccc(NC(=O)OCc2ccccc2)nc1=O)NCc1ccccn1,-16,·,-1,6,3864,0,12
CC(C)(C)NC(=O)C1N(c2cccnc2)C(=O)C2C(C(=O)Nc3ccccc3)C3(C)C=CC21O3 (stereo unspecified),12,0,3,-4,6968,3,5.0
Cc1ccc(NC(=O)CSc2nc3ccccc3c(=O)n2CCCN2CCCCC2)cc1Cl,-17,-12,10,19,3532,6,-4.2
# Further results:
SMILES,PrP 5UTR inh,BJeLR lethal,Mtb hypoxia rep,Mtb hypoxia rep growth,Bead autofluor,Sa ugtP lethal,RN4220 kill
N#C/C(=C\c1cccc(O)c1)c1nc2ccccc2o1,-20,-3,11,-3,5071,-7,1.5
CCC(=O)c1ccc(OCC(=O)OCC(=O)NC2CCCCCC2)cc1,-13,-5,3,-4,6113,1,-0.4
Cc1cc(NS(=O)(=O)c2ccc(NC(=O)c3cc4c(=O)n5ccccc5nc4s3)cc2)nc(C)n1,0,-7,7,4,2751,-9,14
Cc1ccc(C(=O)COC(=O)C2C3C=CC(C3)C2C(=O)OCC(=O)c2ccc(C)c(C)c2)cc1C (stereo unspecified),-8,5,3,3,22921*,0,3.1
O=c1[nH]c2ccccc2cc1CN(CC1CCCO1)S(=O)(=O)c1ccccc1 (stereo unspecified),-11,7,4,-4,6131,1,5.5
O=C(CN1CCS(=O)(=O)CC1)NNC(=O)C1CCCCC1,-23,-9,3,1,4162,4,2.2
O=S(=O)(c1ccc(OCC(O)CN2CCN(c3ccccc3Cl)CC2)cc1)N1CCOCC1 (stereo unspecified),-7,10,-13,-2,9206,2,1.2
O=C(C[C@H]1C[C@H](C(=O)N2CCOCC2)[C@@]2(CCC3CCCC3)c3[nH]c4cc(-c5ccco5)ccc4c3CCN2C1=O)NCCN1CCOCC1,-7,·,-14,11,3057,-6,-2.9
O=C(COC(=O)CSc1ccc(F)cc1)NCC1CCCCC1,4,-7,-5,5,6130,1,0.3
O=C(CSc1nnc(Cn2c(=O)sc3ccccc32)n1-c1ccccc1)N1CCOCC1,-26,·,8,9,9271,-6,8.0
O=C1N=C2SCCN2/C1=C\c1c(Cl)cccc1Cl,-13,-5,·,·,2853,·,·
CC(=NNC(=O)COc1ccc(C(C)(C)C)cc1)c1ccccc1,·,·,3,9,·,-3,1.0
CN(C)C(=O)c1cc2cc([N+](=O)[O-])ccc2s1,-7,5,·,·,2524,-3,3.9
CON/C=C(\C=Nc1ccc(Cl)cc1Cl)c1ncc(C(F)(F)F)cc1Cl,-26,-1,10,9,10485,18,6.2
COc1cc(C2C(C(=O)c3ccc(C)o3)=C(O)C(=O)N2Cc2cccnc2)ccc1O (stereo unspecified),-21,11,0,1,3441,1,-14
O=C(Nc1cccc(C(F)(F)F)c1)c1cc2c(=O)c3ccccc3oc2nc1C(F)(F)F,1,-5,-3,-3,23568*,-35,3.0
CC(=O)NCc1ccc(S(=O)(=O)N/N=C/c2ccc(Br)cc2)cc1,-26,3,·,·,2614,·,·
COC(=O)C(C(=O)OC)c1ncccc1[N+](=O)[O-],3,5,14,3,3392,1,6.9
COc1ccc(C=C(C(=O)O)c2ccc(OC)cc2)cc1,-25,·,10,9,3391,2,3.7
CCOC(=O)CSc1nnnn1-c1cc(OC)c(Cl)cc1OC,-27,-4,·,·,2420,7,0.9
Cc1ccc(Nc2[nH]c(=O)c3ccccc3c2C(=O)c2ccccc2)cc1,·,11,0,-3,·,-7,2.5
O=C1CCCN1Cc1ccccc1,-14,5,4,5,5331,3,2.0
CCO[C@@H]1OC(C(=O)NCc2nc3ccccc3[nH]2)=C[C@H](c2ccccc2)[C@H]1CCCO,-15,-12,·,·,2842,·,·
O=C(CCc1nnc(CCCCc2ccccc2)o1)NC1CCCC1,-6,3,7,0,3774,7,2.3
CCN(CC)c1ccc(/C=C(\C#N)C(N)=S)cc1,-15,3,10,9,7995,0,6.7
